# Source: PubChem
# MLL AF4-AF9 inh = inhibitors of AF4 peptide binding to AF9, primary screen, biochemical, AlphaScreen, biotin-AF4 peptide, FLAG-AF9, single point | inhibition, % at 10 µM | 350,000 compounds, 0.47% hits | AID 651704, 2012;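 active = every replicate reaching a set inhibition limit, whatever the replicate mean, cut at about 25% in these data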;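 also: 0% = plate neutral control median and 100% = total signal loss; the record names both 10 and 1 µM as test concentration; the first replicate is given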
# Target sequence (P42568 whole entry, looked up): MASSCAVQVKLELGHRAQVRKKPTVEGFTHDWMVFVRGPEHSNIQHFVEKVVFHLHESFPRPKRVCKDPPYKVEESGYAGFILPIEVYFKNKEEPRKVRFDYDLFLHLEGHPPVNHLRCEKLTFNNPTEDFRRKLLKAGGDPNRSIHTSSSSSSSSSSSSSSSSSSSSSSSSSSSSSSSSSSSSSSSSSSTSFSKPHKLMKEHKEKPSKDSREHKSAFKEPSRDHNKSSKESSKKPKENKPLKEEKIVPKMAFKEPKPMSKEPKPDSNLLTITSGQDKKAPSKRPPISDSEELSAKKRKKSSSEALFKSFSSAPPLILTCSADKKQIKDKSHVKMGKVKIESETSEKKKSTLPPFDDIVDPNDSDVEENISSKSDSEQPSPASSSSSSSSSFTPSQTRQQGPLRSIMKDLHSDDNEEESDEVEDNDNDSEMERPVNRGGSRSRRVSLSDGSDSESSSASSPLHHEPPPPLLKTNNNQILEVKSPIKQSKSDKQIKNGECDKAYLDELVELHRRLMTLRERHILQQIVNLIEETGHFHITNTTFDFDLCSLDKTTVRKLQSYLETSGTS
# rRNA inh HTS = reduced GFP signal of wild-type E. coli, primary screen, bacterial rRNA inhibitor project, GFP/RFP fluorescence, OD600, single point | 350,000 compounds, 1.6% hits | GFP signal change (wild-type ribosome), % (no concentration beside the values) | E. coli WT GFP vs humanized-ribosome RFP mutants, 24 h; stronger effect = lower value; DMSO median 0, no signal -100;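 active = significant combined selectivity score with lowered wild-type GFP, culture density cut under 30%, mutant RFP and density less affected; inactive = any of these conditions unmet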; also: one replicate is shown; some compounds called inactive have numbers as strong as hits
# rRNA inh HTS OD600 = further read-out of rRNA inh HTS, marked with its call; OD600 change, %; measured here: OD600 growth;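 optical density of the mix in the first replicate; 0 = DMSO median and -100 = no signal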
# rRNA inh HTS RFP = further read-out of rRNA inh HTS, marked with its call; RFP signal change, %; measured here: RFP humanized mutant strains;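 first replicate; 0 = DMSO median and -100 = no signal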
# An asterisk follows results filed as active; & = joins results of further samples. Not all compounds are listed, so the mix of outcomes need not match the whole.
# Every second line gives: MLL AF4-AF9 inh	rRNA inh HTS	rRNA inh HTS OD600	rRNA inh HTS RFP
CCC(=O)Nc1ccc2c(c1)C(=O)N(C)[C@@H]1CC[C@H](CC(=O)NCc3ccccc3Cl)O[C@H]1CO2
  0.8	4.6	3.8	0.9
Cc1noc(C)c1NC(=O)N[C@H]1CC[C@H](CCNC(=O)C2CC2)O[C@@H]1CO
  -2.4	3.9	8.1	-2.9
C[C@@H]1CN([C@H](C)CO)S(=O)(=O)c2ccc(C#CC3(O)CCCC3)cc2O[C@@H]1CN(C)C(=O)c1ccncc1
  2.4	4.2	15.9	-1.0
C[C@@H]1CN([C@@H](C)CO)C(=O)Cc2cc(NS(=O)(=O)c3ccc(Cl)cc3)ccc2O[C@@H]1CN(C)C(=O)Nc1ccc(C(F)(F)F)cc1
  -1.1	-0.8	-8.4	2.8
CCCNC(=O)N1[C@@H]2c3ccc(-c4ccc(OC)cc4)c(=O)n3C[C@H]1[C@H](CO)[C@H]2C(=O)NC1CCC1
  -1.6	-2.2	-4.0	-2.3
CCCNC(=O)C[C@@H]1CC[C@@H]2[C@H](COc3ccc(NC(=O)CC)cc3C(=O)N2C)O1
  -8.8	3.3	4.9	0.0
Nc1c(C(=O)Nc2ccc(Br)cc2)sc2nc(N3CCOCC3)c3c(c12)CCCC3
  -6.2	-0.2	-1.3	0.6
C[C@@H]1CN([C@@H](C)CO)C(=O)Cc2cc(NC(=O)CCN3CCOCC3)ccc2O[C@@H]1CN(C)Cc1ccc2c(c1)OCO2
  1.0	0.6	1.8	-1.7
COc1ccc(N2c3ccccc3CN(Cc3ccccc3)[C@@H](C)[C@H]2Cc2c(C)cccc2C)cc1
  2.4	-32.5	-50.9	3.9
N#C[C@@H]1[C@H](c2ccc(-c3cccc(F)c3)cc2)[C@@H](CO)N1C(=O)CN1CCOCC1
  5.8	-3.1	11.2	1.4
C[C@@H]1CN([C@@H](C)CO)C(=O)c2cc(C#CCN(C)C)cnc2O[C@H]1CN(C)C(=O)c1ccc(F)cc1
  0.5	1.3	1.8	-1.5
C[C@H]1CCCCO[C@@H](CN(C)C(=O)Nc2cccc3ccccc23)[C@@H](C)CN([C@@H](C)CO)C(=O)c2cc(NS(=O)(=O)c3ccccc3)ccc2O1
  -2.6	-0.5	0.0	3.6
C/C=C/c1cnc2c(c1)C(=O)N([C@H](C)CO)C[C@H](C)[C@H](CN(C)C(=O)Nc1ccc(C(F)(F)F)cc1)O2
  5.5	0.4	-2.9	-0.7
C[C@@H]1CCCCO[C@@H](CN(C)C(=O)c2ccccc2)[C@@H](C)CN([C@H](C)CO)C(=O)c2cc(NC(=O)Cc3ccccc3)ccc2O1
  -3.1	2.5	5.4	0.8
C[C@@H]1CCCCO[C@@H](CN(C)C(=O)c2ccncc2)[C@@H](C)CN([C@@H](C)CO)C(=O)c2cc(NS(=O)(=O)c3ccc(F)cc3)ccc2O1
  -3.0	-1.0	-4.6	0.2
O=C(CN1CCOCC1)N1CC(=O)N2[C@H](CO)[C@H](c3ccc(/C=C/c4ccccc4)cc3)[C@@H]2C1
  1.9	2.6	-0.3	7.2
O=C(C1CCCCC1)N1CC2(C1)[C@@H](c1ccccc1)[C@@H](CO)N2Cc1ccccc1F
  -14.2	-25.1	-65.8	33.8
C[C@@H]1CN([C@H](C)CO)C(=O)c2cc(NC(=O)C3CCCCC3)ccc2O[C@@H](C)CCCCO[C@@H]1CN(C)C(=O)Nc1ccccc1
  4.2	-1.4	-4.4	1.9
C[C@@H]1CN([C@@H](C)CO)S(=O)(=O)c2ccc(-c3cncnc3)cc2O[C@H]1CN(C)C(=O)CC1CC1
  0.0	4.9	-2.7	1.2
COc1cccc(S(=O)(=O)N2C[C@@H]3N[C@H](C2)C3c2ccc(-c3cccc(C)c3)cc2)c1 (some centres not stated)
  -4.1&4.1	2.3&-59.0	11.3&-73.9	1.5&-11.1
COc1ccc(S(=O)(=O)Nc2ccc3c(c2)C(=O)N([C@H](C)CO)C[C@@H](C)[C@H](CN(C)Cc2ccccc2)O3)cc1
  1.4	0.3	9.9	0.0
O=S1(=O)N[C@H](Cc2ccccc2)COc2cccc(NCCO)c21
  -0.4	4.1	8.9	-0.2
Cc1ccc(S(=O)(=O)N[C@@H]2CC[C@@H](CCNC(=O)C3CCOCC3)O[C@@H]2CO)cc1
  -7.3	2.0	5.6	0.3
C[C@@H]1CN([C@H](C)CO)C(=O)c2cc(NC(=O)CCN3CCOCC3)ccc2O[C@@H]1CN(C)Cc1ccc(-c2ccccc2)cc1
  6.2	-1.2	6.8	1.6
C[C@H](CO)N1C[C@H](C)[C@H](CN(C)S(=O)(=O)c2ccc(Oc3ccccc3)nc2)OCc2cn(nn2)CCCC1=O
  -2.4	-5.8	-6.6	-0.3
CCCNC(=O)Nc1ccc2c(c1)C(=O)N(C)C[C@@H](OC)[C@H](C)CN(S(C)(=O)=O)[C@H](C)CO2
  -5.7	2.5	1.6	-0.8
C/C=C/c1ccc([C@@H]2[C@H]3CN(C(=O)Nc4ccccc4F)CCCCN3[C@H]2CO)cc1
  -1.4	-3.8	-3.2	7.9
CCc1nc2ccc(C(=O)NC3CCN(Cc4ccccc4)CC3)cn2c1N(CC)Cc1cccc(Br)c1
  11.5	-57.8	-73.2	-15.4
NC(COCc1ccccc1)c1csc(Nc2ncccn2)n1 (configuration not stated)
  0.7	17.6	16.0	1.7
Cc1noc(C)c1NC(=O)N(C)C[C@H]1Oc2ccc(NC(=O)Nc3ccc(C(F)(F)F)cc3)cc2C(=O)N([C@@H](C)CO)C[C@@H]1C
  3.0	0.9	-5.6	-3.1

# 2 of these compounds in a different format:
MLL AF4-AF9 inh | rRNA inh HTS | rRNA inh HTS OD600 | rRNA inh HTS RFP | structure
-2.6 | -0.5 | 0.0 | 3.6 | C[C@H]1CCCCO[C@@H](CN(C)C(=O)Nc2cccc3ccccc23)[C@@H](C)CN([C@@H](C)CO)C(=O)c2cc(NS(=O)(=O)c3ccccc3)ccc2O1
5.5 | 0.4 | -2.9 | -0.7 | C/C=C/c1cnc2c(c1)C(=O)N([C@H](C)CO)C[C@H](C)[C@H](CN(C)C(=O)Nc1ccc(C(F)(F)F)cc1)O2

# More records.
# Every second line gives: MLL AF4-AF9 inh	rRNA inh HTS	rRNA inh HTS OD600	rRNA inh HTS RFP
CCCC(=O)Nc1ccc2c(c1)OC[C@H](C)NC[C@H](C)[C@H](OC)CN(C)C2=O
  -0.2	-1.1	12.1	-0.1
C[C@@H]1CN([C@H](C)CO)C(=O)c2cc(NS(=O)(=O)c3ccccc3)ccc2O[C@@H]1CN(C)Cc1ccc(C(F)(F)F)cc1
  3.4	0.5	-9.2	0.9
COc1ccc(S(=O)(=O)N[C@@H]2C=C[C@H](CC(=O)NCCc3ccncc3)O[C@@H]2CO)cc1
  -1.4	1.4	1.2	0.1
COc1cccc(S(=O)(=O)N2CC[C@@H]3[C@H]2c2cc(C#Cc4cccnc4)ccc2N[C@@H]3CO)c1
  -2.3	-8.6	-9.4	-0.3
CC(C)C#Cc1cnc2c(c1)C(=O)N([C@H](C)CO)C[C@@H](C)[C@H](CN(C)Cc1ccccc1)O2
  1.8	4.9	12.9	-2.3
O=C(C[C@H]1CC[C@@H](NC(=O)CN2CCOCC2)[C@H](CO)O1)NC1CCCCC1
  -2.8	0.3	0.1	0.0
COc1ccccc1-c1cnc(C(O)c2ccc(Cl)cc2C)[nH]1 (configuration not stated)
  2.3	-8.2	-26.4	4.8
CC(=O)N(C)C[C@H]1Oc2cc(-c3cccc(F)c3)ccc2S(=O)(=O)N([C@H](C)CO)C[C@H]1C
  -3.0	-5.7	-0.8	0.6
CN1C(=O)c2cc(NS(C)(=O)=O)ccc2OC[C@H]2O[C@@H](CC(=O)NC3CCCCC3)CC[C@H]21
  -1.9	-3.7	1.4	1.3
COc1ccc(NC(=O)N(C)C[C@H]2Oc3c(NC(=O)c4ccncc4)cccc3C(=O)N([C@@H](C)CO)C[C@@H]2C)cc1
  -2.7	3.1	13.0	-4.1
C[C@H](CO)N1C[C@H](C)[C@@H](CN(C)S(=O)(=O)c2cccs2)Oc2ccc(NC(=O)C3CCCCC3)cc2CC1=O
  0.1	-4.0	-4.0	0.2
C[C@@H]1CN([C@@H](C)CO)C(=O)c2ccccc2-c2ccccc2CO[C@H]1CN(C)S(=O)(=O)c1ccc(Cl)cc1
  12.3	-3.2	-23.5	14.1
C[C@@H]1CN([C@@H](C)CO)C(=O)c2cccc(NS(=O)(=O)c3cn(C)cn3)c2O[C@@H]1CN(C)Cc1ccncc1
  -1.1	8.3	15.9	-0.3
O=C(CN1CCOCC1)N1CC(=O)N2[C@H](C1)[C@H](c1ccc(C3=CCCCC3)cc1)[C@@H]2CO
  -0.2	5.5	-3.7	1.8
C/C=C/c1ccc([C@@H]2[C@@H](CO)N3C(=O)CN(S(=O)(=O)c4cccc(F)c4)C[C@H]23)cc1
  1.0	6.1	-9.6	2.2
C[C@H](CO)N1C[C@H](C)[C@@H](CN(C)C)Oc2ccc(NC(=O)C3CC3)cc2C1=O
  -1.7	1.9	3.2	-1.7
C[C@H]1CCCCO[C@H](CN(C)S(=O)(=O)c2ccccc2)[C@@H](C)CN([C@@H](C)CO)C(=O)c2cc(NC(=O)Nc3ccc(C(F)(F)F)cc3)ccc2O1
  -0.2	5.7	14.1	1.2
C[C@@H]1CN([C@H](C)CO)C(=O)c2cc(NC(=O)C3CC3)ccc2O[C@H]1CN(C)C(=O)Nc1ccc2c(c1)OCO2
  -9.1	1.8	8.5	-1.2
Cc1ccc(S(=O)(=O)Nc2ccc3c(c2)C(=O)N([C@@H](C)CO)C[C@@H](C)[C@H](CN(C)Cc2ccncc2)OCCCC[C@@H](C)O3)cc1
  -1.7	0.0	0.2	-0.5
COc1cccc(NC(=O)N[C@H]2C=C[C@H](CC(=O)N3CCN(C)CC3)O[C@H]2CO)c1
  -5.2	2.2	11.0	0.7
COc1ccccc1-c1cnc(C(O)c2ccc(C(C)(C)C)cc2)[nH]1 (configuration not stated)
  2.0	-40.1	-60.3	10.7
C[C@H]1CN([C@@H](C)CO)S(=O)(=O)c2ccc(-c3cncnc3)cc2O[C@H]1CN(C)C
  -8.4	4.3	15.3	-4.2
CO[C@@H]1CN(C)C(=O)c2cc(NC(=O)Nc3ccccc3Cl)ccc2OC[C@@H](C)N(C)C[C@H]1C
  0.2	-0.5	-0.9	3.3
CNC[C@H]1Oc2ccc(NC(=O)Nc3ccc(OC)cc3)cc2C(=O)N([C@H](C)CO)C[C@H]1C
  -1.4	-4.2	-15.5	-0.9
COc1cccc(-c2ccc([C@H]3[C@@H](CO)N4C(=O)CN(C(=O)C5CC5)C[C@@H]34)cc2)c1
  1.0	0.2	0.4	0.9
C[C@H](CO)N1C[C@H](C)[C@@H](CN(C)C(=O)C2CCCCC2)OCCCC[C@H](C)Oc2ccc(NS(=O)(=O)c3ccccc3)cc2C1=O
  -0.1	2.3	-1.1	1.8

# A different layout for four compounds above:
SMILES: COc1ccccc1-c1cnc(C(O)c2ccc(C(C)(C)C)cc2)[nH]1 (configuration not stated)
  MLL AF4-AF9 inh: 2.0
  rRNA inh HTS: -40.1
  rRNA inh HTS OD600: -60.3
  rRNA inh HTS RFP: 10.7
SMILES: C[C@H]1CN([C@@H](C)CO)S(=O)(=O)c2ccc(-c3cncnc3)cc2O[C@H]1CN(C)C
  MLL AF4-AF9 inh: -8.4
  rRNA inh HTS: 4.3
  rRNA inh HTS OD600: 15.3
  rRNA inh HTS RFP: -4.2
SMILES: CO[C@@H]1CN(C)C(=O)c2cc(NC(=O)Nc3ccccc3Cl)ccc2OC[C@@H](C)N(C)C[C@H]1C
  MLL AF4-AF9 inh: 0.2
  rRNA inh HTS: -0.5
  rRNA inh HTS OD600: -0.9
  rRNA inh HTS RFP: 3.3
SMILES: CNC[C@H]1Oc2ccc(NC(=O)Nc3ccc(OC)cc3)cc2C(=O)N([C@H](C)CO)C[C@H]1C
  MLL AF4-AF9 inh: -1.4
  rRNA inh HTS: -4.2
  rRNA inh HTS OD600: -15.5
  rRNA inh HTS RFP: -0.9
